Vaccinia inh = blocks a specific stage of Vaccinia orthopoxvirus infection, primary screen, cell-based, single point. Vaccinia-infected cells, mCherry/Venus stage reporter fluorescence; active compounds read low; some inactives read as strong as hits. activity change (mCherry), % (concentration not given with the values). actives 0.01% (n = 89,000);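 active = mCherry past -33% and 40 or more points under the early reporter, replicates agreeing; inconclusive = past -33% without that gap or agreement; tested in A549 cells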;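 note: scaled between vehicle wells and reference inhibitor wells; 23 nL library stock went into each well; one replicate is shown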
Vaccinia inh Venus = second read-out of Vaccinia inh, no call of its own (marks repeat the call); activity change (Venus), %; measured here: Venus reporter, other viral stage;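 negative = less Venus signal; first of two replicates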
* hit, by the source's call; ? = inconclusive; . = not tested or not shown; & = joins results of further samples. A portion of the library; count on the stated rates, not on these rows.

SMILES | Vaccinia inh | Vaccinia inh Venus
C[C@@H](NC(=O)C[C@@H]1C[C@@H]2c3cc(NC(=O)C4CCOCC4)ccc3O[C@@H]2[C@@H](CO)O1)c1ccccc1 | -2 | -1
COc1ccc(S(=O)(=O)Nc2ccc3c(c2)C(=O)N([C@H](C)CO)C[C@@H](C)[C@@H](CN(C)S(=O)(=O)c2ccc(F)cc2)OCCCC[C@H](C)O3)cc1 | -5 | -2
C[C@@H]1CCCCO[C@@H](CN(C)C)[C@H](C)CN([C@@H](C)CO)C(=O)c2cc(NS(=O)(=O)c3ccc(F)cc3)ccc2O1 | -2 | 7
C[C@@H]1CN([C@H](C)CO)C(=O)Cc2cc(NS(=O)(=O)c3ccc(F)cc3)ccc2O[C@@H]1CN(C)S(=O)(=O)c1ccc(F)cc1 | -4 | 0
C[C@@H]1CN([C@@H](C)CO)C(=O)c2cccc(NC(=O)Nc3ccccc3)c2O[C@@H]1CN(C)C | 5 | 8
O=C(C1CCCC1)N1CC[C@H]2[C@H](CO)Nc3ccc(C#Cc4ccc(F)cc4)cc3[C@H]21 | ? | .
CCNC(=O)Nc1ccc2c(c1)C(=O)N(C)[C@@H]1CC[C@@H](CC(=O)NCC3CCCCC3)O[C@H]1CO2 | 8 | 0
O=C(C[C@H]1CC[C@H]2[C@@H](COC[C@H](O)CN2C(=O)Nc2ccc(Cl)cc2)O1)NCC1CCCCC1 | ? | .
C[C@@H]1CCCCO[C@@H](CN(C)Cc2ccc(C(=O)O)cc2)[C@@H](C)CN([C@@H](C)CO)C(=O)c2cc(NS(=O)(=O)c3ccc(F)cc3)ccc2O1 | 22 | 3
CCC(=O)N1[C@H](CN(C(C)C)S(C)(=O)=O)[C@H](c2ccccc2)[C@@H]1CO | 15 | 13
C[C@@H]1CCCCO[C@@H](CN(C)S(=O)(=O)c2cn(C)cn2)[C@H](C)CN([C@@H](C)CO)C(=O)c2cc(NC(=O)c3ccccc3)ccc2O1 | 14 | 4
CC(C)C#Cc1cnc2c(c1)C(=O)N([C@@H](C)CO)C[C@@H](C)[C@@H](CN(C)C(=O)Cc1ccncc1)O2 | -4 | -2
CC=Cc1ccc2n(c1=O)C[C@H]1[C@H](CO)[C@@H](C(=O)N3CCc4ccccc4C3)[C@@H]2N1Cc1ccccc1 (mixture of isomers) | -13 | -9
O=C(O)C[C@@H]1C[C@H]2c3cc(NC(=O)C4CCC4)ccc3O[C@H]2[C@H](CO)O1 | 12 | 12
C[C@@H]1CN([C@@H](C)CO)S(=O)(=O)c2ccc(-c3cncnc3)cc2O[C@H]1CN(C)Cc1cncnc1 | 16 | 17
C[C@@H]1CCCCO[C@@H](CN(C)CC2CCCCC2)[C@H](C)CN([C@H](C)CO)C(=O)c2cc(NS(=O)(=O)c3cn(C)cn3)ccc2O1 | 9 | 11
CC(=O)N1[C@@H](CO)[C@@H](c2ccccc2)C12CN(C(=O)Cc1ccccc1)C2 | 12 | 10
COc1ccc(CN(C)C[C@@H]2Oc3ccc(NC(=O)c4ccncc4)cc3CC(=O)N([C@H](C)CO)C[C@@H]2C)cc1 | 20 | 15
C[C@H](CO)N1C[C@H](C)[C@@H](CN(C)CC2CCCCC2)OCc2cnnn2CCCC1=O | 15 | 9
O=C(c1ccc(F)cc1)N1CC(=O)N2[C@H](C1)[C@H](c1ccc(-c3ccccc3F)cc1)[C@@H]2CO | -25 | -19
COc1ccc(S(=O)(=O)Nc2ccc3c(c2)C(=O)N([C@H](C)CO)C[C@@H](C)[C@H](CN(C)S(=O)(=O)c2ccccc2)O3)cc1 | 17 | 16
C[C@@H]1CN([C@@H](C)CO)C(=O)Cc2cc(NC(=O)Cn3cnnn3)ccc2O[C@@H]1CN(C)C(=O)Nc1ccc2c(c1)OCO2 | 14 | 10
C[C@@H]1CCCCO[C@@H](CN(C)S(C)(=O)=O)[C@@H](C)CN([C@H](C)CO)C(=O)c2cc(N(C)C)ccc2O1 | 22&29 | 13&2
CCCN(C)C[C@H]1OCCCC[C@@H](C)Oc2ccc(NS(=O)(=O)c3ccccc3)cc2C(=O)N([C@H](C)CO)C[C@H]1C | -3 | -3
C[C@@H]1CN([C@@H](C)CO)C(=O)c2cccc(NC(=O)c3ccncc3)c2O[C@H]1CN(C)S(=O)(=O)c1cn(C)cn1 | 28 | 25

Overlap with the part before: 2 compounds; new compounds follow.
SMILES | Vaccinia inh | Vaccinia inh Venus
CCCN(C)C[C@H]1OCCCC[C@@H](C)Oc2ccc(NS(=O)(=O)c3ccccc3)cc2C(=O)N([C@H](C)CO)C[C@H]1C | -3 | -3
C[C@@H]1CN([C@@H](C)CO)C(=O)c2cccc(NC(=O)c3ccncc3)c2O[C@H]1CN(C)S(=O)(=O)c1cn(C)cn1 | 28 | 25
C[C@@H]1CN([C@@H](C)CO)C(=O)c2cc(NC(=O)Nc3ccc(C(F)(F)F)cc3)ccc2O[C@@H](C)CCCCO[C@@H]1CN(C)Cc1ccc2c(c1)OCO2 | ? | .
C[C@H](CO)N1C[C@H](C)[C@@H](CN(C)Cc2ccc(C(F)(F)F)cc2)Oc2ccc(NC(=O)c3ccncc3)cc2CC1=O | ? | .
CN(C)CCCNC(=O)[C@H]1[C@H](CO)[C@H]2Cn3c(ccc(-c4ccccc4)c3=O)[C@H]2N1C | 12 | 18
O=C(Nc1cccc(F)c1)N1CC(=O)N2[C@H](CO)[C@H](c3ccc(-c4cccc(F)c4)cc3)[C@H]2C1 | ? | .
CCCNC(=O)N[C@@H]1C=C[C@@H](CC(=O)NC2CCCCC2)O[C@H]1CO | 4 | 2
C[C@H]1CN([C@@H](C)CO)C(=O)Cc2cc(NC(=O)Nc3ccc4c(c3)OCO4)ccc2O[C@@H]1CN(C)Cc1ccncc1 | 6 | -2
O=C(C1CCC1)N1CCCCN2[C@H](C1)[C@H](c1ccc(-c3ccncc3)cc1)[C@@H]2CO | 6 | 5
C[C@@H]1CN([C@H](C)CO)C(=O)CCCn2cc(nn2)CO[C@H]1CN(C)C(=O)Nc1ccc(N2CCCCC2)cc1 | 13&18 | 20&24
O=C(c1ccc(F)cc1)N1CC2(C1)[C@H](c1ccccc1)[C@H](CO)N2Cc1ccccn1 | 9 | 3
C[C@H](CO)N1C[C@H](C)[C@H](CN(C)C(=O)NC2CCCCC2)Oc2ncc(C#Cc3cccc(F)c3)cc2C1=O | ? | .
C[C@H](NC(=O)[C@@H]1[C@@H](CO)[C@@H]2Cn3c(cccc3=O)[C@@H]2N1Cc1cccnc1)c1ccccc1 | 12 | 5
C[C@@H]1CN([C@@H](C)CO)C(=O)Cc2cc(NS(C)(=O)=O)ccc2O[C@H]1CN(C)S(=O)(=O)c1ccc(Cl)cc1 | 15 | 7
C[C@H]1CN([C@@H](C)CO)C(=O)c2cc(NC(=O)Nc3ccccc3)ccc2O[C@@H]1CN(C)Cc1ccncc1 | 7 | 4
C[C@H](CO)N1C[C@H](C)[C@@H](CN(C)CC2CCCCC2)Oc2c(NC(=O)c3ccc(-c4nccs4)cc3)cccc2C1=O | ? | .
CCCNC(=O)N(C)C[C@@H]1Oc2ncc(-c3ccccc3F)cc2C(=O)N([C@H](C)CO)C[C@@H]1C | 6 | 10
Cc1cc(C(=O)Nc2cccc3c2O[C@H](CN(C)C(=O)NC(C)C)[C@H](C)CN([C@H](C)CO)C3=O)n(C)n1 | 9 | 0
CC(C)(C)[S@@](=O)N1Cc2cc(C(=O)NCc3ccncc3)nc(-c3cccc(-c4cccc(C#N)c4)c3)c2[C@H]1CCO | -6 | 6
O=C(Nc1ccc(C(F)(F)F)cc1)Nc1ccc2c(c1)[C@H]1C[C@H](CC(=O)N3CCc4ccccc4C3)O[C@@H](CO)[C@H]1O2 | -15 | -1
COc1ccc(NC(=O)N(C)C[C@@H]2OCCCC[C@@H](C)Oc3ccc(NC(=O)Nc4ccc(F)cc4)cc3C(=O)N([C@@H](C)CO)C[C@H]2C)cc1 | 5 | 5
C[C@@H]1CN([C@H](C)CO)C(=O)c2cc(NC(=O)Nc3ccccc3)ccc2O[C@@H](C)CCCCO[C@H]1CN(C)C(=O)Cc1ccccc1 | -19 | -18
C[C@@H]1CN([C@@H](C)CO)C(=O)c2cc(NC(=O)Nc3ccccc3)ccc2O[C@@H]1CN(C)Cc1ccc2c(c1)OCO2 | ? | .
Cc1noc(C)c1NC(=O)Nc1cccc2c1O[C@@H](CN(C)Cc1ccc3c(c1)OCO3)[C@H](C)CN([C@@H](C)CO)C2=O | 8 | 3
CCCNC(=O)N1CC2(C1)[C@@H](c1ccccc1)[C@@H](CO)N2C(=O)c1ccncc1 | 3 | 3
C[C@H](CO)N1C[C@H](C)[C@@H](CN(C)S(C)(=O)=O)Oc2ccc(NC(=O)Nc3ccc(C(F)(F)F)cc3)cc2C1=O | 4 | 7
CCC(=O)N(C)C[C@@H]1Oc2ncc(C#CCc3ccccc3)cc2C(=O)N([C@@H](C)CO)C[C@H]1C | 15 | 11
(list continues)
SMILES | Vaccinia inh | Vaccinia inh Venus
O=C(Nc1ccc(Cl)c(Cl)c1)N[C@@H]1CC[C@H](CCn2cc(C3CC3)nn2)O[C@@H]1CO | -15 | -10
C[C@H]1CCCCO[C@@H](CN(C)Cc2ccccc2)[C@@H](C)CN([C@@H](C)CO)C(=O)c2cc(NC(=O)Nc3ccccc3)ccc2O1 | ? | .
C[C@H](CO)N1C[C@H](C)[C@H](CN(C)C(=O)c2cccc(F)c2)Oc2cc(-c3cccc(F)c3)ccc2S1(=O)=O | ? | .
O=C(c1ccc2c(c1)OCO2)N1CC(=O)N2[C@H](CO)[C@H](c3ccc(C#Cc4ccccc4)cc3)[C@@H]2C1 | -19 | -26
COc1ccc(S(=O)(=O)Nc2cccc3c2O[C@@H](CN(C)C(=O)Nc2ccc(C(F)(F)F)cc2)[C@@H](C)CN([C@H](C)CO)C3=O)cc1 | -31 | -26
CC(C)NC(=O)N(C)C[C@H]1Oc2cc(-c3cncnc3)ccc2S(=O)(=O)N([C@@H](C)CO)C[C@@H]1C | 17 | 11
C[C@H]1CCCCO[C@@H](CN(C)S(C)(=O)=O)[C@@H](C)CN([C@@H](C)CO)C(=O)c2cc(N(C)C)ccc2O1 | -7 | 2
C[C@@H]1CCCCO[C@H](CN(C)S(=O)(=O)c2ccccc2)[C@@H](C)CN([C@H](C)CO)C(=O)c2cc(NC(=O)Cc3ccccc3)ccc2O1 | 12 | -5
C[C@@H]1CCCCO[C@H](CN(C)C(=O)c2ccncc2)[C@H](C)CN([C@@H](C)CO)C(=O)c2cc(NS(=O)(=O)c3ccc(Cl)cc3)ccc2O1 | 11 | 1
C[C@@H]1CCCCO[C@@H](CN(C)S(C)(=O)=O)[C@@H](C)CN([C@@H](C)CO)C(=O)c2cc(NS(=O)(=O)c3ccc(F)cc3)ccc2O1 | 17 | 7
CC(=O)N1[C@H](CO)[C@@H](c2ccccc2)C12CN(C(=O)Nc1ccccc1F)C2 | 14 | 12
C[C@H](CO)N1C[C@H](C)[C@@H](CN(C)C(=O)CCN2CCCCC2)Oc2ncc(C#Cc3ccccn3)cc2C1=O | 10 | 17
COc1ccc(NC(=O)N(C)C[C@H]2Oc3ccc(NC(=O)Nc4ccc5c(c4)OCO5)cc3C(=O)N([C@H](C)CO)C[C@@H]2C)cc1 | 9 | 4
CC(=O)N(C)C[C@H]1Oc2ncc(C#Cc3ccccc3F)cc2C(=O)N([C@H](C)CO)C[C@@H]1C | 7 | -2
C[C@H](CO)N1C[C@H](C)[C@@H](CN(C)C(=O)Nc2ccc3c(c2)OCO3)Oc2ccc(NC(=O)Cc3cn(C)c4ccccc34)cc2C1=O | 0 | 6
Cc1cccc(-c2ccc(C3[C@@H]4CN(Cc5cccnc5)C[C@H]3N4)cc2)c1 (stereo partly drawn) | -1 | 6
C[C@H](CO)N1C[C@H](C)[C@H](CN(C)C)OCCCC[C@H](C)Oc2ccc(NS(=O)(=O)c3ccc(F)cc3)cc2C1=O | -1 | -3
C[C@H](CO)N1C[C@H](C)[C@@H](CN(C)Cc2ccc(Cl)c(Cl)c2)OCCCC[C@H](C)Oc2ccc(NC(=O)Nc3ccccc3)cc2C1=O | -27 | -14
COc1ccccc1NC(=O)N[C@H]1CC[C@H](CC(=O)NCc2ccc(Cl)c(Cl)c2)O[C@H]1CO | -14 | -6
C[C@H]1CN([C@@H](C)CO)C(=O)c2cc(NC(=O)CCN3CCOCC3)ccc2O[C@H]1CN(C)C(=O)Nc1ccc2c(c1)OCO2 | 20 | 9
O=C(C[C@H]1C=C[C@@H](NC(=O)c2ccccc2)[C@@H](CO)O1)NCc1ccc(Oc2ccccc2)cc1 | -9 | -9

Structures listed so far containing an aryl methoxy group:
SMILES | Vaccinia inh | Vaccinia inh Venus
COc1ccc(S(=O)(=O)Nc2ccc3c(c2)C(=O)N([C@H](C)CO)C[C@@H](C)[C@@H](CN(C)S(=O)(=O)c2ccc(F)cc2)OCCCC[C@H](C)O3)cc1 | -5 | -2
COc1ccc(CN(C)C[C@@H]2Oc3ccc(NC(=O)c4ccncc4)cc3CC(=O)N([C@H](C)CO)C[C@@H]2C)cc1 | 20 | 15
COc1ccc(S(=O)(=O)Nc2ccc3c(c2)C(=O)N([C@H](C)CO)C[C@@H](C)[C@H](CN(C)S(=O)(=O)c2ccccc2)O3)cc1 | 17 | 16
COc1ccc(NC(=O)N(C)C[C@@H]2OCCCC[C@@H](C)Oc3ccc(NC(=O)Nc4ccc(F)cc4)cc3C(=O)N([C@@H](C)CO)C[C@H]2C)cc1 | 5 | 5
COc1ccc(S(=O)(=O)Nc2cccc3c2O[C@@H](CN(C)C(=O)Nc2ccc(C(F)(F)F)cc2)[C@@H](C)CN([C@H](C)CO)C3=O)cc1 | -31 | -26
COc1ccc(NC(=O)N(C)C[C@H]2Oc3ccc(NC(=O)Nc4ccc5c(c4)OCO5)cc3C(=O)N([C@H](C)CO)C[C@@H]2C)cc1 | 9 | 4
COc1ccccc1NC(=O)N[C@H]1CC[C@H](CC(=O)NCc2ccc(Cl)c(Cl)c2)O[C@H]1CO | -14 | -6

From PubChem
